TRPML1 agonist = activates the human TRPML1 channel. Q9GZU1. actives 0.12% (n = 410,000). TRPML1-expressing cells, Ca2+ dye fluorescence, FDSS; host cell line not named in the record; reference of the full effect not given here. activation, % (test concentration not listed); in the data active = activation above about 50%; inconclusive = about 30% to 50%; inactive = below about 30%; also: 0% is about no effect; the text of the record puts the active cut at 80%
Target sequence (Q9GZU1 whole entry, looked up): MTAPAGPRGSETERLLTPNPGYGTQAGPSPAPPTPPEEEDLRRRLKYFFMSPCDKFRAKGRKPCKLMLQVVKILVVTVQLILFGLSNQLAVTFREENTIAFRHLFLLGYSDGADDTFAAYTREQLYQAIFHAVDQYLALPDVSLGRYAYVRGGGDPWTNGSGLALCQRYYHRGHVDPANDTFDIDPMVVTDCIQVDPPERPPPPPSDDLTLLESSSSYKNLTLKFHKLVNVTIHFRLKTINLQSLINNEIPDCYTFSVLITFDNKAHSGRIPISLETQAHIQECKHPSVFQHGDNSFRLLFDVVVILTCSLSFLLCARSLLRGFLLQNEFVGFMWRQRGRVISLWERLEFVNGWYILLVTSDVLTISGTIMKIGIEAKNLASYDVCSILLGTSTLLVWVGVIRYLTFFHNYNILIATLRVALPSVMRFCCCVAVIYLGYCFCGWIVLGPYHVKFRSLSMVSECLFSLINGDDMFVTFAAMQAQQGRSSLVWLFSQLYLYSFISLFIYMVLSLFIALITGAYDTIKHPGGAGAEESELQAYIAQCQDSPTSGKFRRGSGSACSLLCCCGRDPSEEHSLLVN
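Tetracycline-induced TRPML1-DL cells are seeded and incubated overnight before loading with a no-wash Ca2+ dye and quencher. Agonist activity is taken from the 110 s fluorescence read following compound pin-transfer on an FDSS, before EC80 54-4 challenge.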
TRPML1 blocker = blocks the human TRPML1 channel; Q9GZU1; TRPML1-inducible cells, Ca2+ dye fluorescence, FDSS; active compounds read low; inhibition of EC80 agonist-evoked calcium signal; activity change, negative = inhibition, % (concentration not given with the values); actives 0.02% (n = 390,000); AID 624415; in the data active means activity change below about -50%; inconclusive means about -30% to -50%; inactive means above about -30%;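 also: stimulus is agonist 54-4 at its EC80 concentration; % is scaled to controls: 0 for no effect and ±100 for the full control effect; the text of the record puts the active cut at -80%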
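Calcium fluorescence in TRPML1-DL cells induced overnight with Tet: a 110 s read after compound pin addition, then a 110 s antagonist read after challenge with 54-4 at 4 uM final (EC80).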
TRPV1 PAM = enhances activation of the human vanilloid receptor TRPV1 | Q8NER1 | TRPV1-expressing cells, Fluo-8 calcium influx, capsaicin EC20 potentiation; host cell line not named in the record; control for the full effect not named in the record | potentiation, % at 8.33 µM | actives 0.02% (n = 320,000) | AID 540277; active means potentiation above 80%; inconclusive means 30% to 80%; inactive means below 30%; also: 0% is about no effect
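Fluo-8 calcium influx in TRPV1-expressing cells, kinetic read (ex 480/em 520 nm). Compound added and read 3 min for agonist activity, followed by capsaicin at EC20 final and 2 min further read for enhancement.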
CtBP-E1A blk = CtBP/E1A binding inhibition. AlphaScreen GST-E1A/His-CtBP binding, 1536-well; active compounds read low; control for the full effect not named in the record. activity change, % (no concentration beside the values). actives 0.49% (n = 340,000); in the data active means activity change below about -65%; inconclusive means about -30% to -65%; inactive means above about -30%; also: % is scaled to controls: 0 for no effect and ±100 for the full control effect
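Steps: dispense buffer (Tris pH 8.0, NaCl 300 mM, TCEP 1 mM, BSA, Tween 20); add 5X protein mix (GST-E1A, His-CtBP, 125 nM each); pin 23 nL compound; 2 h at 37 °C, dark; add 5X beads (50 ug/mL); 1 h; read.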
D2 potentiator = potentiates the human D2 dopamine receptor allosterically | P14416 | AID 624464 | actives 0.23% (n = 360,000) | potentiation, % (concentration not given with the values) | DiscoveRx D2 beta-arrestin cells, luminescence, 90 min; 100% = 57 uM dopamine signal; active = potentiation of 50% or more; inconclusive = 30% to 50%; inactive = 30% or less;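 also: compound concentration not given in the record; tested on top of an EC20 dose of dopamine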
Target sequence (P14416 whole entry, looked up): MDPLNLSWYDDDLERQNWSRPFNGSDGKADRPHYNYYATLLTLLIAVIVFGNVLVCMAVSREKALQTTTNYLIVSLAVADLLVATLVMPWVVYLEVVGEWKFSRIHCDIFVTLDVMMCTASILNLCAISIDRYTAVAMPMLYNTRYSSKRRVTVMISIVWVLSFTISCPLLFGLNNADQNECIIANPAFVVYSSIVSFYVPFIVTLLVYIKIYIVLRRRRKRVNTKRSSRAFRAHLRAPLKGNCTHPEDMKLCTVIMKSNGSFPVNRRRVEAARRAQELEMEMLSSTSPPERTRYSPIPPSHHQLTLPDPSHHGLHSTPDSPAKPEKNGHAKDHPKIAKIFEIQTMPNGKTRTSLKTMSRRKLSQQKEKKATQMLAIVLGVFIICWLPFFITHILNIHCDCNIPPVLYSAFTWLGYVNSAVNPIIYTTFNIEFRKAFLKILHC
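PathHunter beta-arrestin assay in DiscoveRx D2 cells. Compounds were added with an EC20 of dopamine (50 nM final) for 90 min at 37 deg C. Luminescence was read 1 h after detection reagent, with 57 uM dopamine as the EC100 control.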
Six1-Eya2 inh = Six1/Eya2 interaction inhibition | AlphaScreen GST-Six1/His-Eya2 binding, biochemical; active compounds read low; control for the full effect not named in the record | actives 0.56% (n = 360,000) | activity change, % (concentration not given with the values) | AID 651725 | Q15475+O00167; in the data active = activity change below about -65%; inconclusive = about -30% to -65%; inactive = above about -30%; also: % is scaled to controls: 0 for no effect and ±100 for the full control effect
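GST-Six1 + His-Eya2 (5X stock: 250/500 nM); Tris pH 8.0, 300 mM NaCl, 0.05% BSA, 0.02% Tween 20; GSH donor/Ni acceptor beads; 1 h 37 °C dark; AlphaScreen readout.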
Starred values were filed as active, the others as inactive; u = inconclusive; x = not tested or not shown; & = joins results of further samples.

#	molecule	CtBP-E1A blk	D2 potentiator	TRPML1 agonist
1	C=CCOc1ccc(/C=C\c2nc(O)c([N+](=O)[O-])c(=O)[nH]2)cc1OC	-12	-13	-0.4
2	Cc1cc(Cl)ccc1OCC(=O)Nc1ccc(CN2CCOCC2)cc1	-13	-9	0.8
3	CC(=O)Nc1ccc(NC(=O)COC(=O)c2ccc([N+](=O)[O-])o2)cc1	-3	u	0.3
4	CCCNC(=O)c1c(NC(=O)C2COc3ccccc3O2)sc2c1CCCC2 (configuration not stated)	9	-16	-0.4
5	CN(CC1CCOCC1)C(=O)CC1C(=O)NCCN1CC(c1ccccc1)c1ccccc1 (configuration not stated)	0	-31	0.4
6	O=C(CN1CCN(CCO)CC1)Nc1ccccc1	0	-29	-0.2
7	O=C(O)CCCCNS(=O)(=O)c1ccc(Cl)c(C(F)(F)F)c1	12	-3	-0.9
8	CCn1c(SCC(=O)N2CCCCC2C)nc2ccsc2c1=O (configuration not stated)	2	7	-0.2
9	COC(=O)[C@@]1(C)[C@H]2C(=O)N(C)C(=O)[C@H]2[C@H]2CN=C(SCc3ccc(C#N)cc3)N21	5	-6	1.2
10	O=C(c1ccoc1)N1CCN(c2cc(-c3ccccc3)nc3cc(-c4ccc(Br)cc4)nn23)CC1	-7	-16	-0.2
11	Cc1ccc(/C=C/C(=O)c2ccccc(=O)c2O)c(C)c1	3	-21	-0.9
12	COc1ccccc1CN=C1Nc2ccccc2CS1	1	-10	-0.4

#	TRPV1 PAM	TRPML1 blocker	Six1-Eya2 inh
1	0	-14	-12
2	0	-8	2
3	x	-9	18
4	11	15	17
5	6	-15	3
6	2	0	6
7	10	12	-2
8	0	-2	0
9	x	-16	4
10	x	-14	31
11	2	-12	-11
12	-47	-13	1

Carrying on:
#	molecule	CtBP-E1A blk	D2 potentiator	TRPML1 agonist
13	O=C(Oc1ccc(F)cc1C(=O)/C=C/c1cccs1)c1cccc([N+](=O)[O-])c1	-2	-5	0.2
14	O=C(CCc1ccccc1Cl)Nc1ccc(S(=O)(=O)N2CCOCC2)cc1	-8	-5	0.1
15	CCOC(=O)c1ccccc1NC(=O)c1ccc(Cl)c(S(=O)(=O)N2CCOCC2)c1	3	-8	0.7
16	CCOC(=O)C1(Cc2cccc(OC)c2)CCN(Cc2cnc(SC)nc2)CC1	-5	3	0.8
17	Cc1ccc2c(c1)N(C(=O)CCC(=O)NCC(C)c1ccccc1)CC(C)O2 (configuration not stated)	-1	-10	0.3
18	CCOC(=O)c1c(C)c(C(=O)NC(C)COC)c(C)n1C (configuration not stated)	4	-14	-0.3
19	CCOC(=O)c1c(NC(=O)CNC2CCCCC2)sc(C)c1C	-1	2	0.2
20	CC(C)[C@H](NC(=O)c1ccco1)C(=O)OCC(=O)c1ccc(Br)s1	-2	-5	1.1
21	COc1ccccc1CNCC(O)(c1ccc(Cl)cc1)c1ccc(Cl)cc1	13	-26	0.9
22	CCCCOC(=O)C(C)Oc1ccc(=O)n(-c2ccccc2)n1 (configuration not stated)	1	0	-0.5
23	CCCN1C(=O)COc2ccc(C(=O)c3ccccc3C(=O)O)cc21	10	4	1.0
24	CCC1(c2ccccc2)C(=O)N=C(N)N(C#N)C1=O (configuration not stated)	8	5	-0.2

#	TRPV1 PAM	TRPML1 blocker	Six1-Eya2 inh
13	9	18	-1
14	u	7	4
15	x	75	9
16	-2	-10	1
17	-8	-4	0
18	2	-25	-1
19	0	-3	-4
20	x	35	1
21	-29	16	5
22	-19	-13	11
23	6	32	12
24	x	-12	-2

Later entries
#	molecule	CtBP-E1A blk	D2 potentiator	TRPML1 agonist
25	CCN([C@H](CO)C(C)C)S(=O)(=O)c1ccccc1Br	2	-5	-0.7
26	Cc1nn(C(C)C(=O)NCCCc2ccccc2)c(=O)c2nn(-c3ccccc3)c(C)c12 (configuration not stated)	0	-13	-1.4
27	O=S(=O)(c1c(Cl)sc(Cl)c1Br)N1CCCC1	x	1	1.1
28	CCn1c(SCC(=O)Nc2cc(OC)ccc2OC)nnc1C1CCCCC1	-5	-16	0.6
29	O=C1CC(c2ccc(Cl)cc2)CC(=O)C1CS(=O)(=O)c1ccccc1 (configuration not stated)	x	-7	0.2
30	CC(=O)C(C)Sc1nnc(-c2ccccc2F)n1C1CC1 (configuration not stated)	5	3	0.3
31	COC(=O)Cc1c(C)nc2nc(NCc3ccc(Cl)cc3)[nH]n2c1=O	2	10	0.0
32	CCc1ccccc1NC(=O)CSc1nc(C)c(C)o1	9	-5	1.5
33	CCc1cc2c(=O)n(Cc3ccco3)c(SCC(=O)NC3CCS(=O)(=O)C3)nc2s1 (configuration not stated)	-5	-8	-0.5
34	Cc1ccc(CN2CCN(CC(=O)NC(C)c3ccc4c(c3)OCCO4)C2=O)cc1 (configuration not stated)	4	-4	-1.2
35	CC(C)(C)n1nnnc1C(c1ccc2ncccc2c1)N1CCSCC1 (configuration not stated)	51	-3	0.2
36	CC(C)CN(C(=O)CCCc1nc2ccccc2c(=O)[nH]1)c1c(N)n(Cc2ccccc2)c(=O)[nH]c1=O	1	3	-1.0

#	TRPV1 PAM	TRPML1 blocker	Six1-Eya2 inh
25	x	12	1
26	19	-7	2
27	10	-8	2
28	7	3	-14
29	9	-9	-1
30	10	-8	-2
31	-1	4	7
32	8	13	1
33	19	31	-6
34	-6	56	2
35	u	-1	17
36	3	17	8

(continued)
#	molecule	CtBP-E1A blk	D2 potentiator	TRPML1 agonist
37	Cn1c(CN2CCCC2)nc2cc(NC(=O)c3ccc(Cl)cc3)ccc21	-6	-3	0.7
38	C=CC1CN(CC(=O)OC)S(=O)(=O)c2ccccc21 (configuration not stated)	3	0	0.2&-0.1
39	COc1ccccc1N1CC(C(=O)NC2CCCCCC2)CC1=O (configuration not stated)	3	-5	-0.3
40	Cc1ccc(S(=O)(=O)N2CCC3(CC2)OCCN3S(=O)(=O)c2c(C)cc(C)cc2C)cc1	7	-6	22
41	Cc1ccc([N+](=O)[O-])cc1NCC(=O)NN	0	-1	-0.3
42	O=C(NCC(=O)N1CCN(C(c2ccccc2)c2ccccc2)CC1)c1ccccc1Br	0	-12	1.6
43	COc1ccccc1Nc1nnc(SCC(=O)NC2CCCC2)s1	-5	-2	0.6
44	COCCc1nn2c(=O)cc(COC(=O)c3cc(OC)c(OC)c(OC)c3)nc2s1	1	-9	-0.3
45	COc1ccc(N2CCN(C(=O)CSc3nc4[nH]ncc4c(=O)n3-c3ccc(Br)cc3)CC2)cc1	x	-2	2.8
46	O=C(NCc1ccccc1)c1onc(CSc2ccc(F)c(F)c2)c1C(=O)NCc1ccccc1	13	-11	3.9
47	O=C(N[C@@H](Cc1ccccc1)C(=O)O)c1ccc(C(F)(F)F)cc1	0	-6	-0.7
48	CC1CN(S(=O)(=O)c2cccc(C(=O)Nc3ccc4c(c3)CCC4)c2)CC(C)O1 (configuration not stated)	3	-4	0.3

#	TRPV1 PAM	TRPML1 blocker	Six1-Eya2 inh
37	0	9	-16
38	6	-10&-2	9
39	x	12	9
40	-2	10	-8
41	-7	-3	-4
42	x	9	-4
43	0	-5	-3
44	7	-10	-1
45	17	19	-1
46	x	-1	4
47	-7	0	2
48	-17	-5	-8

Later entries.
#	molecule	CtBP-E1A blk	D2 potentiator	TRPML1 agonist
49	COc1ccccc1CNC(=O)C1CCC(CNc2c(N3CCOCC3)c(=O)c2=O)CC1 (configuration not stated)	-7	-9	-0.4
50	CCOc1ccc(C(C)(C)C)cc1S(=O)(=O)Nc1ccncc1	7	0	0.4
51	CC1(C)NC(=O)N(CC(O)COc2ccccc2C(=O)N2CCCCC2)C1=O (configuration not stated)	-2	-19	-0.4
52	Cc1nonc1CN(C)C(=O)CC1C(=O)NCCN1Cc1cccc(C(F)(F)F)c1 (configuration not stated)	-10	1	-0.3
53	CCc1cc(=O)oc2cc(OCC(=O)NCCCN3CCCC3=O)ccc12	0	-4	-0.7
54	Cc1cccc(C(=O)Nc2nnc(Cc3c[nH]c4ccccc34)s2)c1	44	-3	-0.3
55	COc1cc2c(cc1NC(=O)Nc1cccc(C)c1)oc1ccccc12	0	-8	-0.8
56	CN1C2CCC1/C(=C/c1cccn1C)C(=O)/C2=C\c1cccn1C	-22	-19	u
57	CCc1cccc(OCCCn2ccnc2)c1	6	-5	-0.1
58	CCc1nc2c(OCc3ccc(F)c(F)c3)cccn2c1N(C)C(=O)c1ccc(C)cc1	19	-2	0.7
59	O=C(NCC1COCCO1)c1ccc2nc(Cc3cccc(Cl)c3)oc2c1 (configuration not stated)	9	-8	0.2
60	COc1cc(NC(=O)CCn2c(=O)oc3ccccc32)cc(OC)c1OC	-9	-4	-0.3&-0.4

#	TRPV1 PAM	TRPML1 blocker	Six1-Eya2 inh
49	1	0	-14
50	-7	13	6
51	-5	-2	-5
52	-1	13	8
53	-1	-8	0
54	1	-5	6
55	9	1	-3
56	-14	9	u
57	-4	14	0
58	x	x	11
59	-1	-13	2
60	19	0&0	0

In the list so far, 5 contain an NH in an aromatic ring:
#	molecule	CtBP-E1A blk	D2 potentiator	TRPML1 agonist
1	C=CCOc1ccc(/C=C\c2nc(O)c([N+](=O)[O-])c(=O)[nH]2)cc1OC	-12	-13	-0.4
31	COC(=O)Cc1c(C)nc2nc(NCc3ccc(Cl)cc3)[nH]n2c1=O	2	10	0.0
36	CC(C)CN(C(=O)CCCc1nc2ccccc2c(=O)[nH]1)c1c(N)n(Cc2ccccc2)c(=O)[nH]c1=O	1	3	-1.0
45	COc1ccc(N2CCN(C(=O)CSc3nc4[nH]ncc4c(=O)n3-c3ccc(Br)cc3)CC2)cc1	x	-2	2.8
54	Cc1cccc(C(=O)Nc2nnc(Cc3c[nH]c4ccccc34)s2)c1	44	-3	-0.3

#	TRPV1 PAM	TRPML1 blocker	Six1-Eya2 inh
1	0	-14	-12
31	-1	4	7
36	3	17	8
45	17	19	-1
54	1	-5	6

More compounds
#	molecule	CtBP-E1A blk	D2 potentiator	TRPML1 agonist
61	CC(O)/C=C/c1ccc2ccccc2n1 (configuration not stated)	0	-5	0.1
62	Cc1noc(C)c1CSc1nc2ccccc2n1CCc1ccccc1	-9	-10	1.0
63	CN(C)c1ccc(/C=N/NC(=O)COc2ccccc2)cc1	-6	-1	0.5
64	O=S(=O)(NCCc1ccccn1)c1cccs1	3	-28	-0.7
65	CCN(CC)C(=O)Nc1ccc(C(=O)OC)cc1	0	-14	-0.4
66	COc1ccccc1N(CC(=O)N1CCOCC1)S(C)(=O)=O	5	-3	-0.3
67	COc1ccc(-c2cc3nc(C)cc(N4CC(C)CC(C)C4)n3n2)cc1 (configuration not stated)	20	-2	0.6
68	O=C(O)c1cc(NC(=O)C2CCCO2)cc(NC(=O)C2CCCO2)c1 (configuration not stated)	-14	-5	-0.1
69	O=C(N/C(=C/c1cccc([N+](=O)[O-])c1)C(=O)N1CCOCC1)c1ccccc1Br	10	-22	0.3
70	CC(C)(C)NC(=O)Cn1c(SCC(=O)NC2CCCC2)nc2ccccc21	6	-1	-0.6

#	TRPV1 PAM	TRPML1 blocker	Six1-Eya2 inh
61	2	45	1
62	-15	15	-1
63	15	-9	-7
64	9	2	0
65	1	2	24
66	0	-8	-3
67	-7	17	0
68	0	-24	-2
69	-2	7	3
70	u	9	0

Source: PubChem BioAssay (National Center for Advancing Translational Sciences (NCATS))
